Screening results from PubChem BioAssay.
Mtb growth – M. tuberculosis H37Rv growth inhibitors, H37Rv strain (AID 1626) | inhibition, % at 10 µM, or IC50 in µM where a hit was titrated | M. tuberculosis H37Rv growth inhibition; higher % means a stronger effect | 220,000 tested, 0.95% active;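 active means confirmed in a dose series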;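 further: bacteria incubated seven days before Alamar blue readout; 0% = bacteria only wells and 100% = bacteria with antibiotic wells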
Mtb betalactam – beta-lactam sensitization of Mtb H37Rv, H37Rv | 330,000 tested, 0.27% active | AID 434955, 2010 | M. tuberculosis H37Rv growth with meropenem, percent inhibition; hits of this screen are not shown here | inhibition, % at 25 µM;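 active means about 74% or more and at least 40 points above the plate without the antibiotic, then above 30% in a dose series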;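 further: growth measured after seven days incubation then overnight dye step; 0% = bacteria only wells and 100% = bacteria with antibiotic; twin plates without the antibiotic show which effects depend on it; some results filed as inactive read as strong as hits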
YopH inh – YopH tyrosine phosphatase inhibitors, primary screen, biochemical, fluorescence Ex485/Em525. 140,000 tested, 0.16% active. inhibition, %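 (about 10 µM by stock and volumes)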. YopH tyrosine phosphatase [Yersinia enterocolitica];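 active means inhibition of 50% or more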;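 further: controls were vehicle for no effect and minimum signal wells for full effect; inactives centre near -20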
Arbovirus inh – antivirals against arbovirus infection, primary screen, cell-based, full library, 10K replicate subset | inhibition, % at 10 µM | 200,000 tested, 0.37% active | arbovirus infection cell-based antiviral screen;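 active means inhibition from about 30%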;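 further: bluetongue infection of BSR cells; cell survival read as ATP light after 72 h; 0% = infected wells without compound and 100% = uninfected wells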
RecA intein inh – Mtb RecA intein splicing inhibitors, primary screen, biochemical, fluorescence, HTS; cell-free RecA intein splicing; inhibition, %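 (about 9 µM by stock and volumes)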; 290,000 tested, 0.75% active; AID 2221, 2009; in the data active means inhibition above about 30%;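 further: 0% = vehicle wells and 100% = reference inhibitor control wells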
Target sequence (P9WHJ3 whole entry, looked up): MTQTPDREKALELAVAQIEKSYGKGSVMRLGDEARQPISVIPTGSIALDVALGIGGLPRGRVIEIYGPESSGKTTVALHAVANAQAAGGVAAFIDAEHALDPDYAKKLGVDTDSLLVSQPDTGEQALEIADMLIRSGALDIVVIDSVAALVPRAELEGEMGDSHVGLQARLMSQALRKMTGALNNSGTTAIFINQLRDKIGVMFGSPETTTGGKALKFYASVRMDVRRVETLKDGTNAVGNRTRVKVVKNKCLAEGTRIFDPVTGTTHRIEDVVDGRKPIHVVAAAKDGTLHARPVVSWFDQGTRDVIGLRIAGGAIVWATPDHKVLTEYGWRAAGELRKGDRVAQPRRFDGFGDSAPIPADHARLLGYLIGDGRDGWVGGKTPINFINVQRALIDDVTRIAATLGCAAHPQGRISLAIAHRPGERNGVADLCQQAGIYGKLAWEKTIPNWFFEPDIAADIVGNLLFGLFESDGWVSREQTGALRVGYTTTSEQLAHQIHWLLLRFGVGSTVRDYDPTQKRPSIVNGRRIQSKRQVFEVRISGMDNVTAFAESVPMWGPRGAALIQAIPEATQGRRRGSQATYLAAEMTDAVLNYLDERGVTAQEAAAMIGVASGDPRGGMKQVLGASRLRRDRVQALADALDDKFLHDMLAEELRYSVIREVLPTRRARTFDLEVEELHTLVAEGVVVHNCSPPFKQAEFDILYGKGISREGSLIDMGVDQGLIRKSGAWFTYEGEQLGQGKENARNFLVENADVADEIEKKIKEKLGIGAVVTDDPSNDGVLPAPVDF
Arbovirus inh repeat – second read-out of Arbovirus inh, no call of its own (marks repeat the call); inhibition, %; measured here: 10K subset replicate screen; many hits read low in the repeat;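 first of two repeat runs on a subset; 0% = infected and 100% = uninfected wells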
Starred values were filed as active, the others as inactive; . = not tested or not shown. An excerpt; count on the stated rates, not on these rows.

SMILES | Mtb growth | Mtb betalactam | YopH inh | Arbovirus inh | RecA intein inh | others
CN(C)c1ccc(C=C2C(=O)OC3(CCCC3)OC2=O)cc1 | -3% | -1 | . | -2 | -3.7
CCn1c(SCC(=O)N/N=C/c2c[nH]c3ccccc23)nnc1-c1ccc(C)cc1 | 2% | -5 | . | -2 | 4.0
CC(C)(C)c1ccc(-n2ncc3c2CCCC3NC(=O)CN2CCCCC2=O)cc1 (centres undefined) | . | -2 | . | . | 4.9
CN(C(=O)CCS(=O)(=O)c1cc2c(cc1Cl)NC(=O)CO2)C1CCCCC1 | . | -1 | . | . | 0.7
Cc1cccc(Cn2c(SCCN3CCOCC3)nc3c2c(=O)n(C)c(=O)n3C)c1 | 1% | -3 | -32 | -2 | -5.9 | Arbovirus inh repeat=-2
CN(CCOc1ccc(Br)cc1)CC(O)COc1ccc(C#N)cc1 (centres undefined) | . | 20 | . | . | 0.3
COc1cc(CN2CCC(C(=O)NC3CCCC3)CC2)cc(Br)c1O | -1% | 9 | -36 | 3 | 0.5
O=C(C1CCC(CNc2nc(=S)[nH]c3ccccc23)CC1)N1CCN(c2ccccn2)CC1 (centres undefined) | . | -4 | -41 | -17 | -0.3
Cc1ccc(NC(=O)/C(C#N)=C/c2ccc(Sc3nc(C)cc(C)n3)o2)cc1 | -2% | 2 | -5 | 1 | 1.0
N=c1sccn1CC(=O)Nc1ccccc1Sc1ccccc1 | 10% | 0 | . | 1 | 7.3
C=CCSc1nnc(-c2ccncc2)n1-c1ccc(OCC)cc1 | -4% | 0 | -37 | 9 | -0.5
COc1ccc(C(C(=O)NC2CCCC2)N(CCN(C)C)C(=O)c2snc(C(N)=O)c2N)cc1 (centres undefined) | -4% | 5 | -46 | 11 | -2.2
CCOc1cc(Br)cc(C(c2c(C(=O)O)[nH]c3ccccc23)c2c(C(=O)O)[nH]c3ccccc23)c1O | . | 2 | . | . | 10
O=C1OCc2cc(NC(=O)C3CCCCC3)ccc21 | 0% | -1 | -52 | 0 | .
COC(=O)c1ccc(NC(=O)COC(=O)c2cccc3c(=O)c(C)c(-c4ccccc4)oc23)cc1 | -2% | -1 | -5 | -6 | -0.2
[O-]c1n[n+](-c2ccc(Cl)cc2Cl)cc2ccccc12 | 4% | -9 | . | 1 | 2.8
OC(C#CCN1CCCCCC1)(c1ccccc1)c1cccnc1 (centres undefined) | 1% | -8 | . | . | -2.8
CCC/C(=N\NC(=O)c1ccc(CSc2nncn2C)cc1)c1ccccc1 | -11% | 2 | -23 | -3 | 0.5
CCC(=O)N1CCN=C1SCc1cccc(F)c1 | . | -2 | . | . | 0.1
C=CCN(CC=C)S(=O)(=O)c1ccc2nsnc2c1 | -7% | 5 | -41 | 8 | 5.4
COc1ccccc1NC(=O)CCS(=O)(=O)c1ccc2c(c1)NC(=O)C(C)S2 (centres undefined) | . | 9 | . | . | -1.3
Cn1cnnc1SCC(=O)Nc1ccc2c(c1)CCC2 | 6% | 8 | 12 | 5 | 1.0
CC(=O)OCC1O[C@@H](O[C@@H]2C[C@H]3C(C)(C)[C@H](OC(C)=O)CC[C@]3(C)[C@H]3CC[C@]45C[C@]4(CC[C@H]5[C@@H](C)C[C@@H](O)[C@H](O)C(C)(C)O)[C@@]32C)[C@H](O)[C@@H](O)[C@@H]1O (some centres undefined) | 10% | 99 | 3 | -37 | 3.6
Cc1ccc(N2CCN(/N=C/c3ccncc3)CC2)cc1 | 3% | -2 | . | 6 | 2.7
CCSc1ncc(Cl)c(C(=O)Nc2ccccc2OC)n1 | . | 2 | . | . | -2.3
O=S(=O)(NCc1ccccc1)c1cccc(S(=O)(=O)N2CCOCC2)c1 | -4% | 4 | -38 | 2 | 3.4
CCOc1ccccc1NC(=O)CSc1nnc2ccc(-c3ccncc3)nn12 | 2% | 1 | . | 5 | -0.3
CSc1ccccc1C(=O)Nc1ccccc1C(=O)N1CCCC1 | -3% | 5 | . | 4 | -3.9
CC[N+]1(C)CCCC(OC(=O)C(O)(c2ccccc2)c2ccccc2)C1 (centres undefined) | -7% | -2 | -27 | 6 | -0.9
Cc1ccc(C(=O)N[C@H](C(=O)OCc2nnc(-c3ccccc3)o2)C(C)C)cc1 | -3% | 3 | . | . | 0.4
CC(C)CN1CCNC(=O)C1CC(=O)N(C)CC1CCOCC1 (centres undefined) | -6% | -1 | . | 4 | -3.2
CNC(=O)CSc1nnc(-c2ccco2)n1-c1ccc(C)cc1 | 1% | -1 | -23 | -2 | 0.2
CCOC(=O)c1cc2sc(C)cc2n1C(C)C(=O)OCC (centres undefined) | -3% | 6 | -28 | -3 | 3.0
Cc1nnc(NC(=O)CSc2nc3ccccc3[nH]2)s1 | -1% | -8 | . | 13 | -1.2
O=C(CCc1nc(-c2ccccc2F)no1)NCc1ccco1 | -5% | 3 | -12 | -5 | 0.5
O=C(CCSCc1ccc(Cl)cc1)NCc1cccnc1 | -4% | -3 | . | 2 | -0.6

The closing two compounds of the part above are carried over, then new ones follow.
SMILES | Mtb growth | Mtb betalactam | YopH inh | Arbovirus inh | RecA intein inh | others
O=C(CCc1nc(-c2ccccc2F)no1)NCc1ccco1 | -5% | 3 | -12 | -5 | 0.5
O=C(CCSCc1ccc(Cl)cc1)NCc1cccnc1 | -4% | -3 | . | 2 | -0.6
O=C1C(=O)N(Cc2cccnc2)C(c2ccccn2)/C1=C(/O)c1ccc(F)cc1 (centres undefined) | -6% | -12 | -12 | 2 | 0.7
O=C(CCN1CCN(C(=O)c2ccco2)CC1)Nc1ccc(F)cc1 | -7% | 1 | 14 | 9 | .
COc1ccc(-n2c(N)c(C(=O)NCc3ccco3)c3nc4ccccc4nc32)cc1 | 9% | 2 | -22 | 3 | -18
Cc1nonc1OCCNCCNc1ccc([N+](=O)[O-])c2cccnc12 | 15% | 99 | -18 | 0 | 1.9
COc1ccc(COC(=O)NC(C(=O)O)c2ccccc2)cc1 (centres undefined) | . | -6 | . | . | -3.7
Cc1cc(F)ccc1NC(=O)C1CCN(C(=O)Nc2ccccc2)CC1 | . | -4 | . | . | 1.1
O=C(NCc1ccco1)c1ccccc1NS(=O)(=O)c1ccc(Cl)s1 | 4% | -1 | -19 | 29 | 5.6
Cc1cccc(C)c1NC(=S)NC(C)(C)CO | 3% | -8 | . | . | -2.3
O=C(N/N=C/c1ccc[nH]1)c1cc2ccccc2cc1O | . | 88 | . | . | -59
O=C(COC(=O)C1CCN(C(=O)c2ccc(Cl)cc2)CC1)NC1CCS(=O)(=O)C1 (centres undefined) | -3% | -6 | . | 8 | -1.2
CC(C)(C)Cc1nnc(NC(=O)CCC2CCCCC2)s1 | . | 7 | . | . | -0.6
COc1cccc(/C=C2\CCC(C3CCCC3)C2=O)c1OC (centres undefined) | . | -2 | . | . | 0.5
S=c1[nH]nc(-c2ccccc2Cl)n1Cc1ccccc1 | -1% | -6 | . | -3 | 4.1
Cc1ccccc1Cn1nc(C)c(NC(=O)c2cc3n(n2)C(C(F)F)CC(C(F)F)N3)c1C (centres undefined) | 3% | -6 | 3 | 2 | .
O=C(NCc1cccc(C(F)(F)F)c1)c1cccc(S(=O)(=O)NCc2ccccc2)c1 | 2% | -3 | -9 | 0 | 3.0
CN(CC(=O)Nc1ccccc1Cl)C(=O)Cn1nnc(-c2ccc(F)cc2)n1 | . | -9 | . | . | -0.1
COc1ccc(NC(=O)c2ccccc2NC(=O)CSc2ccccc2)cc1 | 5% | -2 | -30 | -9 | 0.9
COC(=O)C1=C(C)Nc2[nH]c(=S)[nH]c(=O)c2C1c1ccc(O)cc1 (centres undefined) | -9% | -8 | . | . | -5.6
CC1(c2nnc(-c3ccc(Cl)cc3)o2)CC(c2ccncc2)=NO1 (centres undefined) | -5% | -4 | . | . | 2.1
COC(=O)C(=O)N1CC2(C)CNCC(C)(C1)C2=O | -1% | 0 | . | -4 | 8.7
COc1cccc(/C=C2/Sc3ccc(C(=O)NCCN4CCCCCC4)cc3NC2=O)c1 | . | 98 | . | . | 5.0
CC(=O)Nc1cccc(C(=O)NCC2(N3CCCCC3)CCCCC2)c1 | -4% | -9 | . | 10 | 4.0
COc1ccc(OC)c([C@@H]2OCCC=C[C@H]2C)c1 | -14% | 1 | -16 | -1 | 1.5
CCC(C)(C)NC(=O)C(c1cccc(OC)c1OC)N(CC(C)C)C(=O)CCC(=O)Nc1cc(C)on1 (centres undefined) | 3% | 2 | . | -4 | 0.4

4 entries drawn at random from the list so far, as already listed:
SMILES | Mtb growth | Mtb betalactam | YopH inh | Arbovirus inh | RecA intein inh | others
COc1ccc(NC(=O)c2ccccc2NC(=O)CSc2ccccc2)cc1 | 5% | -2 | -30 | -9 | 0.9
CCC(C)(C)NC(=O)C(c1cccc(OC)c1OC)N(CC(C)C)C(=O)CCC(=O)Nc1cc(C)on1 (centres undefined) | 3% | 2 | . | -4 | 0.4
CC(=O)Nc1cccc(C(=O)NCC2(N3CCCCC3)CCCCC2)c1 | -4% | -9 | . | 10 | 4.0
S=c1[nH]nc(-c2ccccc2Cl)n1Cc1ccccc1 | -1% | -6 | . | -3 | 4.1

(further entries)
SMILES | Mtb growth | Mtb betalactam | YopH inh | Arbovirus inh | RecA intein inh | others
CC1=C(C)/C(=N\OS(=O)(=O)c2ccc(C)cc2)C=CC1=O | 5% | 100 | -23 | -30 | .
CCOc1ccc(N/N=C(/C#N)C(N)=O)cc1 | -6% | 3 | -20 | 0 | 0.0
CN(NC(=O)c1ccccc1)C1=NS(=O)(=O)c2ccccc21 | -2% | -11 | . | -6 | -1.2
NC(=O)N/N=C/CCc1ccccc1 | -9% | -6 | . | . | -1.6
CCS(=O)(=O)Nc1ccc(C2=NN(C(=O)c3ccco3)C(c3ccco3)C2)cc1 (centres undefined) | . | 40 | . | . | 3.4
COc1ccc(Cc2noc(CN3CCN(Cc4csc(C)n4)CC3)n2)cc1OC | 0% | -3 | . | 2 | -0.2
O=c1[nH]c(=O)n(C2CCCCCC2)c(O)c1C=NCc1cccnc1 | 1% | -9 | . | . | 0.2
Cc1nnc(N2C(=O)C(O)=C(C(=O)c3ccco3)C2c2ccc(F)cc2)s1 (centres undefined) | -10% | -1 | -7 | 1 | -6.2 | Arbovirus inh repeat=7
CCC1CCCCN1S(=O)(=O)c1c(C)n(C)c(=O)n(C)c1=O (centres undefined) | . | -8 | . | . | -1.0
CCCOc1ccc(CSc2ncn[nH]2)cc1 | . | 88 | -10 | 3 | 0.4
COc1cccc(C(=O)NNS(=O)(=O)c2ccc(F)cc2)c1 | . | 6 | . | . | -5.0
CC1(C)CCCN(C(=O)c2ccc3c(c2NCCO)C(=O)c2ccccc2C3=O)C1 | 9% | 28 | -13 | -17 | 5.9
CN1CCN(c2ccc(CNS(=O)(=O)c3cccc(F)c3)cc2)CC1 | -9% | -3 | . | . | -0.9
COc1ccc([N+](=O)[O-])cc1N(CC1CO1)S(=O)(=O)c1ccc(C)cc1 (centres undefined) | 0% | 3 | . | 11 | 4.1
O=C(C[n+]1ccc(CCSc2ccc(F)cc2)cc1)c1ccccc1 | -3% | 53 | . | 7 | -1.5
CNC(=O)NC(=O)CSc1ncc(C(F)(F)F)cc1Cl | -10% | -1 | -34 | 2 | 1.9
CCCCC(c1nnnn1CC1CCCO1)N1CCN(c2cc(Cl)ccc2C)CC1 (centres undefined) | 7% | . | -22 | -3 | 7.5

Arranged by length of the SMILES (rising): 3 of the compounds above
SMILES | Mtb growth | Mtb betalactam | YopH inh | Arbovirus inh | RecA intein inh | others
CN1CCN(c2ccc(CNS(=O)(=O)c3cccc(F)c3)cc2)CC1 | -9% | -3 | . | . | -0.9
CC1(C)CCCN(C(=O)c2ccc3c(c2NCCO)C(=O)c2ccccc2C3=O)C1 | 9% | 28 | -13 | -17 | 5.9
COc1ccc([N+](=O)[O-])cc1N(CC1CO1)S(=O)(=O)c1ccc(C)cc1 (centres undefined) | 0% | 3 | . | 11 | 4.1

Grouped by structure, those above with a thiophene ring, fused or not
SMILES | Mtb growth | Mtb betalactam | YopH inh | Arbovirus inh | RecA intein inh | others
CCOC(=O)c1cc2sc(C)cc2n1C(C)C(=O)OCC (centres undefined) | -3% | 6 | -28 | -3 | 3.0
O=C(NCc1ccco1)c1ccccc1NS(=O)(=O)c1ccc(Cl)s1 | 4% | -1 | -19 | 29 | 5.6
